CtBP-E1A inh: blocks the CtBP interaction with E1A. AlphaScreen GST-E1A/His-CtBP binding, 1536-well; active compounds read low; control for the full effect not named in the record. activity change, % (test concentration not listed). actives 0.49% (n = 340,000); in the data active means activity change below about -65%; inconclusive means about -30% to -65%; inactive means above about -30%; note: % is set by controls: 0 for no effect and ±100 for the full control effect
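Protein mix (5X: 125 nM each GST-E1A, His-CtBP) was incubated with pinned compound 2 h at 37 deg C in dark, in 50 mM Tris pH 8.0 buffer with 300 mM NaCl. Glutathione donor and nickel acceptor beads followed; AlphaScreen signal read after 1 h.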
Sfp PPTase inh: blocks B. subtilis Sfp PPTase activity; Q9F4F7; Biochemical Sfp PPTase activity, qHTS; Potency, µM, inactives show max response, negative = inhibition, usual class: inhibitors; actives 3.5% (n = 310,000); AID 1490; active = well fitted inhibition curve with a large enough effect; inconclusive = small, poorly fitted or top-dose-only effect, or another doubt; inactive = no such curve, though single readings can be large or run the other way;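 note: the enzyme is Sfp with the accession as filed and its product quenches rhodamine fluorescence; potency is the fitted concentration of half-maximal effect; 0% = enzyme reaction without inhibitor and -100% = no enzyme wells; top concentration of the series not given in the record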
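Fluorescence-quenching assay: 15 nM Sfp-PPTase preincubated 15 min at room temperature with compound, then 5 uM rhodamine-CoA and 12.5 uM BHQ-2-labelled YbbR peptide added. Fluorescence (ex 525/em 598 nm) read at start and after 30 min; difference gives rate.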
Six1-Eya2 blk: blocks human Six1 binding to Eya2; Q15475+O00167; AlphaScreen GST-Six1/His-Eya2 binding, biochemical; active compounds read low; control for the full effect not named in the record; actives 0.56% (n = 360,000); activity change, % (test concentration not listed); in the data active = activity change below about -65%; inconclusive = about -30% to -65%; inactive = above about -30%; note: % is set by controls: 0 for no effect and ±100 for the full control effect
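GST-Six1 + His-Eya2 (5X stock: 250/500 nM); Tris pH 8.0, 300 mM NaCl, 0.05% BSA, 0.02% Tween 20; GSH donor/Ni acceptor beads; 1 h 37 °C dark; AlphaScreen readout.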
D2 PAM: positive allosteric modulators of human D2 dopamine receptor; P14416; DiscoveRx D2 beta-arrestin cells, luminescence, 90 min; 100% = 57 uM dopamine signal; potentiation, % (test concentration not listed); actives 0.23% (n = 360,000); AID 624464; active = potentiation of 50% or more; inconclusive = 30% to 50%; inactive = 30% or less;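 note: compound concentration not given in the record; tested on top of an EC20 dose of dopamine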
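PathHunter beta-arrestin assay in DiscoveRx D2 cells. Compounds were added with an EC20 of dopamine (50 nM final) for 90 min at 37 deg C. Luminescence was read 1 h after detection reagent, with 57 uM dopamine as the EC100 control.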
PINK1 expr mod: PINK1 expression modulation | actives 0.2% (n = 410,000) | Potency, µM (titrated, usually from 76.6 µM), inactives show at the highest dose activation (PINK1 increase), usual class: activators | PINK1 immunofluorescence, high-content cytometry, 24 h; active = well fitted activation curve with a large enough effect; inconclusive = small, poorly fitted or top-dose-only effect; inactive = flat fitted curve, though single readings scatter; cell line not stated here;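 note: potency is the fitted concentration of half-maximal effect; % of control where 0% means no effect; nearly all actives have a fitted effect of over 65% in size; a mitochondrial uncoupler was the plate control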
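PINK1 protein, normally rapidly degraded, was detected by immunofluorescence after 24 hour compound treatment of a stable cell line. Titration data (5 concentrations) came from laser-scanning cytometry, with CCCP-treated wells as controls.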
TRPV1 PAM: potentiators of human vanilloid receptor 1 (TRPV1); potentiation, % at 8.33 µM; Q8NER1; AID 540277; actives 0.02% (n = 320,000); TRPV1-expressing cells, Fluo-8 calcium influx, capsaicin EC20 potentiation; host cell line not named in the record; control for the full effect not named in the record; active means potentiation above 80%; inconclusive means 30% to 80%; inactive means below 30%; note: 0% is about no effect
Target sequence (Q8NER1 whole entry, looked up): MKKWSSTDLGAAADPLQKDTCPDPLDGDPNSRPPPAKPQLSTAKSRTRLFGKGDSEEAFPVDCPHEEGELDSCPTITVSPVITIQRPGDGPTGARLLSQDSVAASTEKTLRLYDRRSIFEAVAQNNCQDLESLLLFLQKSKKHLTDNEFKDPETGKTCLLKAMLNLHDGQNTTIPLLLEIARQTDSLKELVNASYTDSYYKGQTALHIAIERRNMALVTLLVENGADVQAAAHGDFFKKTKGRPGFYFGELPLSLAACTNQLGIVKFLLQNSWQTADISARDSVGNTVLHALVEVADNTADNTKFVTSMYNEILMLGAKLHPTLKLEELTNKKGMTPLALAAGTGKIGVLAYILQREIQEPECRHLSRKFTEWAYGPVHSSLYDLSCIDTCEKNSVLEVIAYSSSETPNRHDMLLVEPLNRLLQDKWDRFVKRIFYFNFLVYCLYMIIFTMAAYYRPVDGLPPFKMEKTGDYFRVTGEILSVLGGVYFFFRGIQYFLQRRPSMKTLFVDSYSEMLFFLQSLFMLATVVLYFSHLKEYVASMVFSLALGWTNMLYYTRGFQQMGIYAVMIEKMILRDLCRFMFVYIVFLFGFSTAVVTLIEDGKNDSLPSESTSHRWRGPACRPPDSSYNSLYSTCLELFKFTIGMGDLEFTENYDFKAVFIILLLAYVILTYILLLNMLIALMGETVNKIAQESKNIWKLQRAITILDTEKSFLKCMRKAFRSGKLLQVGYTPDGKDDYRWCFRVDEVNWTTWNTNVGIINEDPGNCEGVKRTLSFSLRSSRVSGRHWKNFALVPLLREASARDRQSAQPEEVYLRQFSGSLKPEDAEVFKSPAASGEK
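Cells expressing TRPV1 were dye-loaded with Fluo-8 and read kinetically: 10 s baseline, 3 min after compound (agonist portion), then 2 min after EC20 capsaicin (allosteric enhancer portion). Calcium-bound dye fluorescence at 480/520 nm.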
D2 agonist: human D2 receptor agonism in beta-arrestin assay. activation, % (concentration not given with the values). P14416. AID 624465. DiscoveRx PathHunter D2 beta-arrestin, luminescence, 90 min; 100% = 57 uM dopamine signal. actives 0.084% (n = 360,000); in the data active = activation above about 40%; inconclusive = about 15% to 40%; inactive = below about 15%; note: compound concentration not given in the record; the text of the record calls up to 30% inactive
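DiscoveRx PathHunter D2 beta-arrestin cells (2,100/well) attached overnight, then compound-stimulated 90 min at 37 C in HBSS/10 mM HEPES/0.1% Tween-20 buffer; beta-galactosidase complementation read by luminescence after 1 h at ambient temperature. Dopamine 57 uM final (EC100) as control.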
Active calls of the source: *; u = inconclusive; x = no result given; & = joins results of further samples; [ ] = dose if it differs, or a comment. Not a hit list; about 3.7% have a hit in one of these screens.

SMILES,CtBP-E1A inh,Sfp PPTase inh,Six1-Eya2 blk,D2 PAM,PINK1 expr mod,TRPV1 PAM,D2 agonist
CCCn1nc(C(=O)OCn2nnc3ccccc3c2=O)c2ccccc2c1=O,0,u,0,1,1.1%,-6,-1.6
Cc1ccccc1C(=O)OCn1nnc2ccccc2c1=O,4,-7%,9,0,2.2%,-4,2.9
CCOc1ccccc1NC(=O)CN(c1ccc(OC)c(OC)c1)S(=O)(=O)c1ccc(C)cc1,-2,x,-10,-3,1.7%,x,-1.6
CCN(CC(=O)Nc1ccc(Br)cc1)CC(=O)Nc1cc(C)on1,-16,x,12,0,3.0%,-2,-4.1
O=C(NCc1ccccc1)c1nc(S(=O)(=O)Cc2ccccc2)ncc1Cl,x,u,-9,-31,-1.2%&5.6%,-14,-10
COc1ccc(CCNC(=O)CN2C(=O)CCSc3ccccc32)c(OC)c1,18,11%,28,-3,0.7%,-9,-2.5
CCOC(=O)C1=C(C)c2ccccc2OC1(C)C(=O)OCC (stereo not given),45,-19%,10,x,1.1%,x,2.3
N#CC1(NC(=O)COC(=O)c2cccc(-n3cnnn3)c2)CCCCC1,-2,x,-6,-10,0.8%,1,-4.4
Cc1ccc2cc(CN(CC3CCCO3)C(=S)NCc3ccco3)c(=O)[nH]c2c1C (stereo not given),-16,32µM*,-6,-5,0.5%,-13,-11
COc1ccc(C(N)c2csc(Nc3nncc4ccccc34)n2)cc1 (stereo not given),-2,x,2,-10,-1.2%,x,2.7
Cc1[nH]c2ccccc2c1C(=O)CN1C(=O)C(=O)N(C2CCCC2)C1=O,7,7%,3,-2,-0.3%,-5,0.3
Cc1cc2nc(-c3ccc(SCc4ccc(C#N)cc4)nc3)[nH]c2cc1C,-17,5%,-4,10,u,-4,1.2
Cc1cc(N)ccc1-n1c(C)ccc1C,1,-9%,-5,26,-0.2%,3,5.2
O=c1cnnc(Nc2cccc(F)c2)[nH]1,-2,19%,17,-2,-2.1%,23,-4.3
CC(C)CN1C(=O)C(=O)N(CC(=O)N2CCC(Cc3ccccc3)CC2)C1=O,14,-1%,-17,0,0.6%,-10,-0.5
COc1ccccc1N1CCN(C2CCCC(C)C2)CC1 (stereo not given),0,18%,1,-23,-5.4%[38.3 µM],1,-1.8
CCc1cc2c(CN3CCN(CCO)CC3)cc(=O)oc2cc1O,0,-9%,0,-15,-2.5%,1,-4.3
CC(=O)N=c1n(C)c2ccccc2n1CCOc1ccccc1,5,8%,6,-10,-1.6%,-4,-1.1
Cc1ccc(SC/C(O)=C(\C#N)c2nc3ccccc3n2C)cc1,3,13%,-4,-13,15%,14,-1.1
O=[N+]([O-])c1ccc2c(c1)-c1ccccc1C2=NO,-2,x,u,18,-4.6%,x,u
CC(C)N1C(=S)SC(C)(C)C1NO (stereo not given),12,2%,7,-2,3.3%,4,1.7
C/C=C/c1ccc(OCCOCCNCc2ccccc2)c(OC)c1,x,-13%,-12,-8,5.0%,-3,3.9
O=c1cc(CN2CCC(Cc3ccccc3)CC2)nc2sccn12,3,21%,0,-8,-2.4%,-1,-4.7
CCOC(=O)Cn1nc(C)n(-c2ccc(C(C)C)cc2)c1=O,-10,-18%,2,-10,-17%[38.3 µM],0,-1.9
O=C1c2ccccc2CCC12N=NCC2c1ccccc1 (stereo not given),12,15%,7,3,-1.8%[38.3 µM],-1,-2.1
CCOC(=O)C1CCN(C(=O)C2COc3ccccc3O2)CC1 (stereo not given),3,11%,8,1,3.4%,-8,4.1
COCCNc1nc(NCC2CCCCC2)c2sc(-c3ccccc3)cc2n1,-3,x,6,-23,2.8%,x,u
COc1ccc2[nH]cc(CC(=O)O)c2c1,3,13%,3,-32,1.0%,1,-5.7
CCN1c2ccccc2NC2C1C(C(C)=O)C(=O)N2c1ccc(Cl)cc1 (stereo not given),15,-7%,-27,-18,5.2%[38.3 µM],4,1.0
Cc1cccc(C)c1NC(=O)CN1CCN(c2ccc(F)cc2)CC1,-4,x,-1,-10,-0.2%,x,-5.4
COc1ccc2[nH]c(=O)c(CN(CC3CCCO3)C(=O)Nc3ccccc3OC)cc2c1 (stereo not given),-6,6%,-1,10,4.4%,-6,-2.1
Cc1cc(C)c2cc(C#N)c(NCCCNC(=O)CCC(=O)O)nc2c1,6,4%,-2,-10,2.1%,-11,-3.6
CCC(NCc1cccnc1)c1ccc(OC)c(OC)c1 (stereo not given),x,x,12,-28,0.0%,x,-3.6
COc1ccccc1CNC(=O)COC(=O)c1ccc(Cl)c(N)c1,-5,7%,2,-2,-0.2%,6,-3.1
O=C(C1Cc2ccccc2CN1S(=O)(=O)c1ccc(F)cc1)N1CCOCC1 (stereo not given),7,13%,4,1,15%[38.3 µM],-1,-1.9
O=C(COc1ccccc1)Nc1ccc2c(c1)C(=O)N(CC1CCCO1)C2=O (stereo not given),7,25%,-2,-1,5.4%,-24,-1.4
Cc1cccc(C(=O)NNC(=S)NC(=O)c2cccs2)c1,u,22%,-17,-18,-1.7%,-6,-6.7
OC(c1ccccc1)(c1nc(-c2ccc3ccccc3c2)cs1)C(F)(F)F (stereo not given),-10,x,-15,-5,12%,x,10
CCOc1ccc(NS(=O)(=O)c2ccc3c(c2)N(C(C)=O)CCS3)cc1,3,7%,-2,-8,-1.0%,15,-0.2
Cc1ccc(S(=O)(=O)N2CCOCC2)cc1C(=O)NCC1CCCCC1,-4,x,-2,-1,-1.5%,-14,3.2
CCN1C(=O)[C@@H]2[C@@H](c3ccc(-c4cccc(Cl)c4)c(OC)c3)N3CCCC[C@@]3(C(=O)OC)[C@@H]2C1=O,-7,x,-9,-4,1.4%,u,-1.3
CCc1ccc(C2c3[nH]c4ccccc4c3CCN2C(=O)c2cc[n+]([O-])cc2)cc1 (stereo not given),5,-25%,-4,-16,8.8%,13,-5.7
C=CC[C@H](CC(=O)N(CCO)Cc1ccccc1)C(=O)N[C@@H](COC(=O)[C@@H](CC=C)CC(=O)OC(C)(C)C)Cc1c[nH]c2ccccc12,-12,x,-17,8,-0.8%,x,9.0
O=C(Nc1ccc(N2CCOCC2)cc1Cl)C1CCN(C(=O)OCc2ccccc2)CC1,-4,-3%,-7,-12,1.7%,4,-4.2
CCCCN(C)CCCNC(=O)c1cc(-c2cccs2)nc2ccccc12,-10,-7%,-4,-18,-0.3%,-19,-0.4

3 entries picked at random from those above:
SMILES,CtBP-E1A inh,Sfp PPTase inh,Six1-Eya2 blk,D2 PAM,PINK1 expr mod,TRPV1 PAM,D2 agonist
O=C(COc1ccccc1)Nc1ccc2c(c1)C(=O)N(CC1CCCO1)C2=O (stereo not given),7,25%,-2,-1,5.4%,-24,-1.4
COc1ccc2[nH]c(=O)c(CN(CC3CCCO3)C(=O)Nc3ccccc3OC)cc2c1 (stereo not given),-6,6%,-1,10,4.4%,-6,-2.1
COc1ccccc1CNC(=O)COC(=O)c1ccc(Cl)c(N)c1,-5,7%,2,-2,-0.2%,6,-3.1

The list goes on.
SMILES,CtBP-E1A inh,Sfp PPTase inh,Six1-Eya2 blk,D2 PAM,PINK1 expr mod,TRPV1 PAM,D2 agonist
O=C(NCCc1c[nH]c2ccccc12)C1CCN(S(=O)(=O)c2ccccc2F)CC1,2,6%,-8,-11,1.1%,5,-0.1
Cc1sc(NC(=O)c2ccc(OCC(C)C)cc2)c(C(N)=O)c1-c1ccc(Cl)cc1Cl,4,3%,2,-6,-1.0%,-45,1.8
O=C(O)CCC(NC(=O)C1CCCN1C(=O)OCc1ccccc1)C(=O)O (stereo not given),4,-16%,2,1,17%,-8,6.7
COc1ccc(NS(=O)(=O)c2ccc(NC(=S)NC(=O)CC(C)C)cc2)cc1,4,3%,-8,-2,16%,-9,-1.1
CN1OC[C@@H]2CN(C(=O)C(C)(C)C)[C@H](c3cccc(N4CCOCC4)c3)C[C@@H]21,7,x,6,x,-1.2%,x,-0.2
Cc1ccc(-c2nc(-c3nccc4ccccc34)oc2-c2ccccc2)cc1,x,-20%,9,-15,9.1%,-23,5.5
CCCCOC(=O)CN1C(=O)c2ccc(C(=O)OCCCC)cc2C1=O,19,-3%,22,27,-0.6%,-5,1.0
COC(=O)c1cc(-c2ccccc2)on1,15,12%,13,0,-0.2%,8,-2.7
CCOc1ccc(C(=O)NCC(=O)OCc2c(C)noc2C)cc1,-6,13%,-1,-7,0.2%,2,-2.6
Cc1cc(NC(=O)CCN2CCC(C(N)=O)CC2)ccc1Br,-7,10%,0,-10,-1.1%,2,-0.4
CCCn1c(C(=O)OC)cc2c1ccn2-c1ccc(F)cc1,-16,u,-23,8,2.5%,u,-3.0
COc1ccc(N2CCN(S(=O)(=O)c3cccc4nsnc34)CC2)cc1,-4,1%,-30,-11,2.8%[38.3 µM],6,-1.7
O=C(OC(C(=O)NCc1cccs1)c1ccccc1Cl)c1ccco1 (stereo not given),5,11%,0,-5,3.0%[38.3 µM],-21,1.7
Cc1ccc(COC(=O)CCCN=C2NS(=O)(=O)c3ccccc32)cc1,-4,x,3,19,1.7%,-3,-0.3
COc1ccc(NC(=O)C[C@H]2C(=O)N(Cc3ccccc3)C[C@@H]2Cc2ccccc2)cc1,-2,x,-4,x,1.7%,x,1.2
O=c1cc(-c2ccc(F)cc2)oc2ccccc12,0,x,-2,-8,1.3%,x,-3.5
COC(=O)[C@@H](NC(=O)NCCC1=CCCCC1)C(C)C,3,17%,4,-9,0.1%,-20,-1.5
CCOC(=O)C(=O)Nc1nnc(C2CCCCC2)s1,0,u,3,-6,0.6%,-21,-1.6
CCCc1cc(-n2ccnc2)n2c(nc3ccccc32)c1C#N,-11,9%,-4,-1,15%,-1,3.4
N#CC1=C(N)SC(N)=C(C#N)C1C1C=CCCC1 (stereo not given),-6,40µM*,-1,-3,-4.8%[38.3 µM],14,-1.6
Cc1ccc(NC(=O)CCNS(=O)(=O)c2ccc(OC(F)(F)F)cc2)c(O)c1,2,18%,-5,6,4.0%,8,-2.9
COc1cccc(C(=O)N2CCC[C@H]2C(=O)N2CCC[C@H]2C(=O)NCc2ccccn2)c1,2,x,5,x,0.5%,x,x
